# From PubChem BioAssay
# FGF22 binding: binders of human FGF22 protein, primary screen, FGF22 synaptogenesis inhibitor project, biophysical, thermal shift, single point | Fibroblast growth factor 22 (Homo sapiens), Q9HCT0 | recombinant FGF22 thermal shift, SYPRO orange fluorescence; percent of sucrose octasulfate shift, DMSO zero | calls only at 9.99 µM | hit rate 1.5% among 340,000 | AID 651658, 2012;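 active means melting point raised past a set limit in the mean and every replicate; three in four hits are not shown here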
# Target sequence (Q9HCT0 whole entry, looked up): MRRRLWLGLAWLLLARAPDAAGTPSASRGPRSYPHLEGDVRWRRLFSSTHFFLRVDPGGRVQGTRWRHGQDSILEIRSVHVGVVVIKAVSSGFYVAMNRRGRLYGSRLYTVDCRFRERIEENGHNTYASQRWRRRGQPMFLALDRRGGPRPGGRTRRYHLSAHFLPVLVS
# rRNA inh HTS: reduced GFP signal of wild-type E. coli, primary screen, bacterial rRNA inhibitor project, GFP/RFP fluorescence, OD600, single point; E. coli WT GFP vs humanized-ribosome RFP mutants, 24 h; stronger effect = lower value; DMSO median 0, no signal -100; hit rate 1.6% among 350,000; GFP signal change (wild-type ribosome), % (test concentration not listed);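 active means significant combined selectivity score with lowered wild-type GFP, culture density cut under 30%, mutant RFP and density less affected; inactive means any of these conditions unmet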; further: one replicate is shown; some compounds called inactive have numbers as strong as hits
# AF4-AF9 inh: inhibitors of AF4 peptide binding to AF9, primary screen, biochemical, AlphaScreen, biotin-AF4 peptide, FLAG-AF9, single point | Protein AF-9 (Homo sapiens), P42568 | hit rate 0.47% among 350,000 | inhibition, % at 10 µM | AID 651704, 2012;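 active means every replicate reaching a set inhibition limit, whatever the replicate mean, cut at about 25% in these data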;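 further: 0% = plate neutral control median and 100% = total signal loss; the record names both 10 and 1 µM as test concentration; the first replicate is given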
# Target sequence (P42568 whole entry, looked up): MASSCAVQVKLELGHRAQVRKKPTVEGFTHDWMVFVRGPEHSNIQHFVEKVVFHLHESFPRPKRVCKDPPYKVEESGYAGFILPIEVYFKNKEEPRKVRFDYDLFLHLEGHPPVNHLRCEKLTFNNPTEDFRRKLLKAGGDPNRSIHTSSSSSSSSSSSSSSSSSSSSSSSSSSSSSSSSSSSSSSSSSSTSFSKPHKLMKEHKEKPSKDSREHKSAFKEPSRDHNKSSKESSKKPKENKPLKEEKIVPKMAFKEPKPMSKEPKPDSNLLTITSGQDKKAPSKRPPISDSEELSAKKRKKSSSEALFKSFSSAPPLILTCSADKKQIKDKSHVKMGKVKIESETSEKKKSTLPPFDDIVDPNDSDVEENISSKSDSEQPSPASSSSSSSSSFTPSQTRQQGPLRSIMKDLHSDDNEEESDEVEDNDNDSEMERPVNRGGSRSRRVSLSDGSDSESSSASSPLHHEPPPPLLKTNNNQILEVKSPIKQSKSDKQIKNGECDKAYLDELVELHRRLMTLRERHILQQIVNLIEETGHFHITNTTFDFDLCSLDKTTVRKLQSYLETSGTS
# rRNA inh HTS OD600: further read-out of rRNA inh HTS, marked with its call; OD600 change, %; measured here: OD600 growth;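 optical density of the mix in the first replicate; 0 = DMSO median and -100 = no signal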
# rRNA inh HTS RFP: second read-out of rRNA inh HTS, no call of its own (marks repeat the call); RFP signal change, %; measured here: RFP humanized mutant strains;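 first replicate; 0 = DMSO median and -100 = no signal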
# * marks the source's active call; other numbers are inactive results; i = inactive; + = active, no number; & = joins results of further samples. Only part of the results is shown; count on the stated rates, not on these rows.
SMILES | FGF22 binding | rRNA inh HTS | rRNA inh HTS OD600 | rRNA inh HTS RFP | AF4-AF9 inh
COc1ccc2c3c([nH]c2c1)[C@H](CO)N(Cc1ccncc1)CC31CCN(Cc2ccc(-c3ccccn3)cc2)CC1 | i | -9 | 1 | 13 | 6.6
Cc1ccccc1SCC(=O)NCC1(N2CCCCC2)CCCCC1 | i | 4 | -7 | 3.7 | 1.1
C[C@H]1CN([C@@H](C)CO)C(=O)c2cc(NS(C)(=O)=O)ccc2O[C@@H]1CN(C)S(C)(=O)=O | i | 7 | 19 | -0.3 | -3.9
CC(C)NC(=O)N(C)C[C@@H]1OCCCC[C@H](C)Oc2ccc(NC(=O)Nc3ccc4c(c3)OCO4)cc2C(=O)N([C@@H](C)CO)C[C@H]1C | i | 4 | 1 | 0.0 | 4.5
Cc1cccc(-c2ccc3[nH]c4c(c3c2)CCN2C[C@@H]([C@H](C)O)[C@@H](N(C)C(=O)Nc3ccc(F)cc3)C[C@@H]42)c1 | i | -22* | -6.2* | 2.2* | 12
COc1ccc(NC(=O)N(C)C[C@H]2Oc3c(NS(=O)(=O)c4cccs4)cccc3C(=O)N([C@H](C)CO)C[C@H]2C)cc1 | i | -1 | -2 | 0.2 | 0.9
O=C(C[C@H]1C[C@@H]2c3cc(NC(=O)Nc4ccccc4F)ccc3O[C@@H]2[C@@H](CO)O1)NCc1ccccn1 | i | -1 | -5 | 0.3 | 1.2
COc1cccc(S(=O)(=O)Nc2ccc3c(c2)[C@@H]2C[C@H](CC(=O)NCCc4ccccc4)O[C@H](CO)[C@@H]2O3)c1 | i | 0&0 | -13&-12 | -12&-2.0 | -0.2&-3.5
CC(=O)c1ccc(OCc2cc(C(=O)N(C)CC3COc4ccccc4O3)no2)cc1 (centres undefined) | i | -17 | -53 | -1.1 | -1.6
OC[C@H]1[C@@H](c2ccccc2)[C@H](CNCC2CCC2)N1CC1CC1 | i | 2 | 0 | -0.6 | 3.2
COc1ccc(S(=O)(=O)N(C)C[C@@H]2OCCCC[C@@H](C)Oc3ccc(NC(=O)Nc4cccc5ccccc45)cc3C(=O)N([C@H](C)CO)C[C@H]2C)cc1 | i | -4 | -2 | -4.6 | -17
N#C[C@H]1[C@@H](c2ccc(C#CC3CC3)cc2)[C@H](CO)N1C(=O)c1cccc(F)c1 | i | 0 | 2 | 0.3 | -1.0
CC(C)(C)[S@](=O)N1Cc2cc(C(=O)NCCN3CCCC3)nc(-c3cccc(-c4cccc(C#N)c4)c3)c2[C@@H]1CCO | i | 10 | 7 | -3.9 | -3.2
C[C@@H]1CN([C@@H](C)CO)C(=O)Cc2cc(N(C)C)ccc2O[C@@H]1CN(C)S(=O)(=O)c1ccc(Cl)cc1 | i | -3 | 7 | 8.9 | 10.0
CCCC(=O)N1CCC2(CC1)CN(S(=O)(=O)c1ccc(C)cc1)[C@H](CO)c1[nH]c3cc(OC)ccc3c12 | i | -3 | -15 | 1.6 | -1.5
CCCCOCC1CN(CCCC)S(=O)(=O)c2c(cccc2Sc2ccc(OC)c(OC)c2)O1 (centres undefined) | i | 6 | 12 | -0.3 | 1.2
CC(C)N(C(=O)c1ccc(Cc2cn(C)c3ccccc23)nc1)C(C)C | i | 3 | 1 | 0.6 | 5.1
C[C@H](CO)N1C[C@H](C)[C@H](CN(C)C(=O)c2ccc3c(c2)OCO3)Oc2ncc(C3=CCCC3)cc2C1=O | i | 5 | 15 | -0.3 | -5.0
C[C@H](NC(=O)C[C@H]1C[C@@H]2c3cc(NC(=O)CC4CC4)ccc3O[C@@H]2[C@H](CO)O1)c1ccccc1 | i | -2 | -2 | -5.0 | -1.3
C[C@@H]1CN([C@@H](C)CO)C(=O)Cc2cc(NS(C)(=O)=O)ccc2O[C@@H]1CN(C)S(=O)(=O)c1ccc(Cl)cc1 | i | 1 | 0 | -3.9 | -0.9
C[C@@H]1CN([C@@H](C)CO)C(=O)c2cccc(NS(=O)(=O)c3ccccc3)c2O[C@H]1CN(C)C | i | 2 | 3 | -1.0 | -2.5
COc1ccc2c3c([nH]c2c1)[C@@H](CO)N(C(=O)c1cccnc1)CC31CN(C(=O)NC(C)C)C1 | i | 4 | 14 | -3.8 | 1.4
Cc1noc(C)c1NC(=O)N(C)C[C@H]1OCCCC[C@@H](C)Oc2ccc(NC(=O)CCC(F)(F)F)cc2C(=O)N([C@@H](C)CO)C[C@@H]1C | i | 0 | 0 | -2.8 | -0.3
C[C@H](CO)N1C[C@H](C)[C@@H](CN(C)Cc2ccc3c(c2)OCO3)Oc2c(NC(=O)CCCCCC(=O)Nc3ccccc3N)cccc2C1=O | i | -6 | -11 | -0.6 | -2.4
CC(C)NC(=O)Nc1cccc2c1O[C@H](CN(C)S(=O)(=O)c1cn(C)cn1)[C@H](C)CN([C@H](C)CO)C2=O | i | 4 | 4 | -0.6 | -1.0
CCS(=O)(=O)N[C@@H]1CC[C@H](CC(=O)Nc2ccc(-c3ccccc3)cc2)O[C@@H]1CO | + | -2 | -3 | 0.5 | -13
CC(C)NC(=O)N(C)C[C@H]1Oc2ccc(NC(=O)Cc3cn(C)c4ccccc34)cc2C(=O)N([C@H](C)CO)C[C@@H]1C | i | 5 | 3 | 0.3 | 0.2
Cc1ccc(S(=O)(=O)N2C[C@H](O)COC[C@@H]3O[C@H](CC(=O)N[C@H]4CCN(Cc5ccccc5)C4)CC[C@H]32)cc1 | i | 1 | 4 | -1.8 | -0.7
C[C@@H]1CCCCO[C@H](CN(C)C(=O)Cc2ccccc2)[C@@H](C)CN([C@@H](C)CO)C(=O)c2cc(NC(=O)Nc3ccc(F)cc3)ccc2O1 | i | -7 | -11 | 1.1 | 0.3
Cc1noc(C)c1NC(=O)N(C)C[C@@H]1Oc2c(NS(=O)(=O)c3cccs3)cccc2C(=O)N([C@H](C)CO)C[C@H]1C | i | 3 | 9 | -0.4 | -2.4

SMILES | FGF22 binding | rRNA inh HTS | rRNA inh HTS OD600 | rRNA inh HTS RFP | AF4-AF9 inh
C[C@@H]1CN([C@H](C)CO)C(=O)Cc2cc(NS(=O)(=O)c3ccccc3)ccc2O[C@H]1CN(C)S(C)(=O)=O | i | 4 | 4 | 0.4 | -1.5
CC(C)CC#Cc1cnc2c(c1)C(=O)N([C@@H](C)CO)C[C@@H](C)[C@H](CN(C)Cc1ccccc1C(=O)O)O2 | i | -1 | 5 | -4.7 | 4.3
C[C@@H]1CN([C@@H](C)CO)C(=O)c2cc(NC(=O)CCCN(C)C)ccc2O[C@H]1CN(C)Cc1ccc2c(c1)OCO2 | i | 5 | -5 | -2.0 | 0.1
CO[C@@H]1CC[C@H]2CCOc3c(C#N)cccc3C(=O)N(C)[C@H](C)C(=O)N(C)C[C@@H]1O2 | i | 0 | 4 | -3.4 | 4.6
CC=Cc1ccc2n(c1=O)C[C@@H]1[C@@H](CO)[C@H](C(=O)NCc3ccc(F)cc3)[C@H]2N1CCC (mixture of isomers) | i | 1 | -11 | -0.9 | 2.2
O=C(c1ccccn1)N1CC2(C1)[C@@H](c1ccccc1)[C@H](CO)N2Cc1ccc(Cl)cc1 | i | -8 | -1 | 1.8 | 2.7
CCCN1C[C@@H](C)[C@H](OC)CN(C)C(=O)c2ccc(NC(=O)c3ccccc3F)cc2OC[C@H]1C | i | 0 | -3 | 2.1 | 0.1
C[C@@H]1CCCCO[C@H](CN(C)Cc2ccc(C(F)(F)F)cc2)[C@@H](C)CN([C@@H](C)CO)C(=O)c2cc(NC(=O)CCC(F)(F)F)ccc2O1 | i | 3 | -22 | 12 | 1.3
NC(=O)c1ncn([C@@H]2O[C@H](CNC(=O)[C@H](N)CSCc3ccccc3)[C@@H](O)[C@H]2O)n1 | i | 11 | 13 | -1.7 | -2.4
C/C=C/c1cnc2c(c1)C(=O)N([C@H](C)CO)C[C@H](C)[C@@H](CN(C)Cc1cncnc1)O2 | i | 7 | 9 | -4.8 | -12
COc1cccc(NC(=O)N(C)C[C@@H]2Oc3ncc(/C=C/c4ccccc4)cc3C(=O)N([C@@H](C)CO)C[C@H]2C)c1 | i | -8 | -1 | 6.8 | 7.4
O=C(Nc1cc(F)ccc1F)N1CCCCN2[C@@H](CO)[C@H](c3ccc(-c4cncnc4)cc3)[C@@H]2C1 | i | -11 | 33 | 2.2 | -1.1
CNc1cncc(-c2ccc(OC)cc2)n1 | i | -1 | -6 | -3.7 | 2.2
CCCCNS(=O)(=O)c1cccc(NC(=O)[C@@H]2O[C@H](CO)[C@@H](O)[C@H]2O)c1 | i | 12 | 12 | -2.0 | -1.2
C[C@@H]1CN([C@@H](C)CO)C(=O)c2cc(C#Cc3ccccn3)cnc2O[C@H]1CN(C)C(=O)c1cnccn1 | i | 1 | 1 | -0.9 | -1.2
C[C@@H]1CCCCO[C@@H](CN(C)CC2CC2)[C@@H](C)CN([C@H](C)CO)C(=O)c2cc(NC(=O)CCCN(C)C)ccc2O1 | i | 7 | 12 | -2.5 | 4.1
O=C(C[C@@H]1C=C[C@@H](NS(=O)(=O)c2ccccc2F)[C@H](CO)O1)NCCCN1CCOCC1 | i | 1 | 0 | 0.1 | -1.3
O=C(NN=Cc1cc(Cl)ccc1[N+](=O)[O-])c1ccco1 | i | -19* | -12* | -1.3* | -0.6
Cc1ccc(S(=O)(=O)Nc2ccc3c(c2)C(=O)N([C@H](C)CO)C[C@H](C)[C@H](CN(C)Cc2ccc(-c4ccccc4)cc2)O3)cc1 | i | 3 | -3 | 3.1 | -0.5
CO[C@H]1CN(C)C(=O)c2ccc(NC(=O)c3ccc4c(c3)OCO4)cc2OC[C@H](C)N(CC2CC2)C[C@H]1C | i | 4 | 6 | -2.1 | -5.4
Cc1ccccc1S(=O)(=O)N[C@@H]1CC[C@H](CCn2cc(-c3ccc(F)cc3)nn2)O[C@@H]1CO | i | -5 | -2 | 3.5 | -2.4
CCN(C[C@H]1[C@H](c2ccccc2)[C@@H](CO)N1C(=O)C1CC1)C(=O)NC1CCCC1 | i | -3 | -1 | 1.0 | 2.8
COc1cccc(C#Cc2ccc3c(c2)O[C@H](CN(C)S(=O)(=O)c2ccccc2F)[C@@H](C)CN([C@H](C)CO)S3(=O)=O)c1 | i | 8 | 13 | -0.7 | -1.0
Cc1noc(C)c1NC(=O)Nc1ccc2c(c1)CC(=O)N([C@H](C)CO)C[C@H](C)[C@H](CN(C)Cc1ccc(C(F)(F)F)cc1)O2 | i | -4 | -6 | -0.8 | -0.8
O=C(NCC1CC1)[C@@H]1N[C@@H]2c3ccc(-c4ccccc4F)c(=O)n3C[C@@H]2[C@H]1CO | i | 3 | 4 | -0.8 | -1.0
CCc1nc2ccc(C(=O)NCCc3ccccn3)cn2c1N(CCC(C)C)CCN(C)C | i | 3 | 15 | -3.8 | 1.4
COc1cccc(CNC(=O)[C@@H]2[C@@H](CO)[C@@H]3Cn4c(ccc(-c5ccncc5)c4=O)[C@H]2N3C(C)=O)c1 | i | 3 | -3 | -0.7 | 9.2
CC(C)CC#Cc1cnc2c(c1)C(=O)N([C@@H](C)CO)C[C@@H](C)[C@@H](CN(C)C(=O)Nc1ccccc1F)O2 | i | 2 | 10 | 3.5 | 1.2
Cc1noc(C)c1-c1ccc(C(=O)NCC2CC2)c2occc12 | i | 3 | -25 | -3.1 | 0.5
CO[C@@H]1CN(C)C(=O)c2cc(NC(=O)C3CC3)ccc2OC[C@@H](C)N(C(=O)CN2CCOCC2)C[C@H]1C | i | 2 | 0 | -1.9 | -2.4
Cc1ccccc1-c1ccc([C@@H]2[C@H](CO)N3CCCCN(C(=O)NC4CCCC4)C[C@@H]23)cc1 | i | -60 | -72 | -8.6 | 0.7
O=C(C[C@@H]1CC[C@H](NC(=O)Nc2cc(F)ccc2F)[C@@H](CO)O1)Nc1ccccc1 | i | -3 | -1 | -1.6 | -0.7
O=C(Nc1cc(F)ccc1F)N1C[C@@H]2[C@H](c3ccccc31)[C@@H](CO)N2Cc1ccncc1 | i | 2 | 0 | 1.1 | -1.2
